KCNQ2 inh: KCNQ2 potassium channel inhibitors, primary screen, cell-based, CHO-K1, FluxOR thallium flux, B-score (AID 2156); O88943; 20 min; stronger effect = lower value; only compounds with negative scores are shown here; some inactives read as strong as hits; B-score at 10 µM; 1.1% of 310,000 active;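 active means fluorescence ratio B-score at most minus 3 library SDs, with starting brightness B-score within 2 library SDs, cut at about -5.5 in these data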
Target sequence (O88943 whole entry, looked up): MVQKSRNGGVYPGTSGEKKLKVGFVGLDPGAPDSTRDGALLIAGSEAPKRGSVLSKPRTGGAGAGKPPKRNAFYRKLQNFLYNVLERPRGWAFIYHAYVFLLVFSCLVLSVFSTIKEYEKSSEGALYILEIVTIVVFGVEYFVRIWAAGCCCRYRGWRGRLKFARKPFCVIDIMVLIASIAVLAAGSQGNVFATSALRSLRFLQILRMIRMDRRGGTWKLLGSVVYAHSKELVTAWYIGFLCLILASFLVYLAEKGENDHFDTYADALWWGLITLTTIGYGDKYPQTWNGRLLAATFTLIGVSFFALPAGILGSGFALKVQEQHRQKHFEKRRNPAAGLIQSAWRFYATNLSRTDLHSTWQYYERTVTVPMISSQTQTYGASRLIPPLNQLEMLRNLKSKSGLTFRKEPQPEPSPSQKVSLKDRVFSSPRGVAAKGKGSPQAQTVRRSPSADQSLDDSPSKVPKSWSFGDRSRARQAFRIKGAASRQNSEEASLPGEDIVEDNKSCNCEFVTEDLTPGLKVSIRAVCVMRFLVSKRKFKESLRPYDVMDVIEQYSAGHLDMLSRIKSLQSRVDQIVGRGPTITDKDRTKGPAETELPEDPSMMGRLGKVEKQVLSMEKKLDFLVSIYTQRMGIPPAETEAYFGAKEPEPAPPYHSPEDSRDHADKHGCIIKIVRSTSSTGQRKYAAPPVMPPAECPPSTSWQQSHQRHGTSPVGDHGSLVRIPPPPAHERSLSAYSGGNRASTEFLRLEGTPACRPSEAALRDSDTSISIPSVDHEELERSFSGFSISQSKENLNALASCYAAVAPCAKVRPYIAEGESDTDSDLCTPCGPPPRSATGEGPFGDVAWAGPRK
KCNQ2 inh baseline: also measured in KCNQ2 inh; calls as there; B-score; measured here: initial fluorescence intensity artifact check;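 brightness before thallium and not channel activity; 0 = typical well and far values either way flag optical interference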
Starred values were filed as active, the others as inactive; i = inactive. Some of the compounds tested; rates above refer to the full screens.

SMILES	KCNQ2 inh	KCNQ2 inh baseline
COC(=O)Nc1nc(-c2cc(Cl)ccc2Cl)cs1	i	-1.9
Cc1cccn2c(=O)c3cc(C(=O)NCc4ccco4)c(=N)n(CCOCCO)c3nc12	i	11
CCc1cccc(NC(=O)CN2C(=O)NC3(CCCCCCC3)C2=O)c1	i	-3.2
O=C(O)C1CC(=O)N(c2ccc(OCc3ccccc3Cl)cc2)C1 (stereo unspecified)	i	-0.04
CCN1CCN(CC(=O)Nc2nc3ccccc3s2)CC1	i	0.33
CCCCn1c(CCCNC(=O)c2ccco2)nc2ccccc21	i	-0.1
c1ccc(NC(c2ccccc2)c2ccncc2)cc1 (stereo unspecified)	i	1.2
COc1ccc(CNC(=O)c2cc3cccc(O)c3oc2=N)cc1	i	0.94
COCCNC(=S)N1CCCN(c2nc3cc(C)ccc3cc2C#N)CC1	i	0.05
COC(=O)c1cc(S(=O)(=O)N2CCN(C(=O)c3ccco3)CC2)cn1C	i	-2
CCn1c(COc2ccccc2)nnc1SCC(=O)C(C)(C)C	i	-1.8
CCOc1cccc(CN2CCC(Oc3ccc(C(=O)N4CCCC4)cc3)CC2)c1	i	0.17
CN(C)c1ccc(C(=O)/C=C/c2ccc(Br)cc2)cc1	i	1
CCCc1[nH]nc2c1C(c1ccc(OCCN3CCOCC3)c(OCC)c1)C(C#N)=C(N)O2 (stereo unspecified)	i	0.08
COc1ccc(CCC(C)Nc2ccc(F)cc2)cc1 (stereo unspecified)	i	-2

A run of entries from further up:
SMILES	KCNQ2 inh	KCNQ2 inh baseline
CN(C)c1ccc(C(=O)/C=C/c2ccc(Br)cc2)cc1	i	1
CCCc1[nH]nc2c1C(c1ccc(OCCN3CCOCC3)c(OCC)c1)C(C#N)=C(N)O2 (stereo unspecified)	i	0.08
COc1ccc(CCC(C)Nc2ccc(F)cc2)cc1 (stereo unspecified)	i	-2

Remaining list, next part.
SMILES	KCNQ2 inh	KCNQ2 inh baseline
Cc1ccc(-c2cc(C(F)F)n3ncc(C(=O)N4CCCCC4c4cccnc4)c3n2)cc1 (stereo unspecified)	i	1.3
Cc1ccc(N2NC(=O)/C(=C/c3ccc(-c4ccc(Cl)c(C(=O)O)c4)o3)C2=O)cc1	i	-0.75
CC(=O)NNC(=S)NC(=O)C(c1ccccc1)c1ccccc1	i	-0.05
Cc1cc(C)cc(N(C(=O)c2ccccn2)C(C(=O)NC2CCCCC2)c2cccs2)c1 (stereo unspecified)	i	0.46
CCOc1ccc(N2C(=O)CC(N)C2=O)cc1 (stereo unspecified)	i	-0.01
COc1ccccc1C(=O)NC(=O)COC(=O)CN1C(=O)NC(C)(C)C1=O	i	3.1
O=c1c2[nH]c3ccccc3c2ncn1CCN1CCOCC1	i	0.55
CCN(CC)S(=O)(=O)c1ccc(OC)c(NC(=S)Nc2cccc(C)c2)c1	i	1.5
CCCN=C(N)/C(C(=O)OCC)=C(\O)c1ccc(OC)cc1	i	-2.8
COc1ccc2c(c1)NC(C)(C)C=C2C	i	-1.6
COc1cc(NC(=O)c2ccccc2)c(OC)cc1NC(=O)Cc1ccc(C)cc1	i	-0.28
Cc1nc2ccc(NC(=O)c3ccco3)cc2nc1C	i	-0.67
O=C1C2CCCN2C(=O)N1CCCN1CCN(c2ccc([N+](=O)[O-])cc2)CC1 (stereo unspecified)	i	-0.03
Clc1ccc(CN2CCN(c3ncccn3)CC2)cc1	i	1.4
C=CCn1c(SCc2cccc3ccccc23)nnc1-c1cccnc1	i	-0.62
CS(=O)(=O)N(CC(O)CON=C1c2ccccc2-c2ccccc21)c1ccc(F)cc1 (stereo unspecified)	i	-3.1
O=C(c1ccc([N+](=O)[O-])cc1)N1CCN(c2cccc3[nH]ccc23)CC1	i	1.8
CCOC(=O)c1c(NC(=O)COC)sc(C)c1C	i	1.6
COc1ccc(-c2csc(NCCc3nc4cc(C(=O)NCCCO)ccc4n3Cc3ccc(C)cc3)n2)cc1	i	0.61
Cc1ccccc1NC(=O)C(=O)NCC1CCCN1S(=O)(=O)c1cccs1 (stereo unspecified)	i	-2.1
CC(=O)Nc1ccc(S(=O)(=O)Nc2nccc(/C=C/c3ccccc3F)n2)cc1	i	0.2
O=C(COC(=O)C1(c2ccccc2F)CCCC1)NCc1cccs1	i	0.56
O=C1CC2(CCN(C(=O)c3c(F)cccc3F)CC2)Oc2ccccc21	i	0.43
CCOC(=O)C1CCCN(C2=NC(=O)/C(=C/c3ccc(O)c(OCC)c3)S2)C1 (stereo unspecified)	i	3.2
CC12CN3CC(C)(CN(C1)C3c1ccc(Cl)cc1Cl)C2=O (stereo unspecified)	i	-0.27
Nc1ccc(Oc2ccccc2F)nc1	i	0.67
C[C@H](NC(=O)C1CCN(C(=O)[C@H](Cc2ccccc2)NC(=O)OC(C)(C)C)CC1)C(=O)O	i	0.5
Cc1cc(=O)oc2cc(OC(C)C(=O)NCCCn3ccnc3)ccc12 (stereo unspecified)	i	2.2
CCOC(=O)N1CCC(N2Cc3cccc(C(=O)Nc4cc(F)ccc4F)c3C2=O)CC1	i	-0.63
Cn1ncc([N+](=O)[O-])c1C(=O)Nc1ccccc1C(=O)O	i	-2.1
O=[N+]([O-])c1ccccc1S(=O)(=O)N1CCN(C2CCCC2)CC1	i	1.7
CCCCCN(C(=O)CCC(=O)OCC(=O)N1CCCCC1)c1c(N)n(CCCC)c(=O)[nH]c1=O	i	-0.57
C=CCn1c(SCC(=O)Nc2ccc3c(c2)CCC3)nnc1-c1cccs1	i	0.77
CC(C)Cc1ccc(C(C)C(=O)Nc2ccc(O)cc2)cc1 (stereo unspecified)	i	-1.5
CC(C)Nc1nc(NC(C)C)nc(N(C)N)n1	i	2.8
Cc1ccc2c(c1)N(C(=O)CCC(=O)N1CCc3ccccc3C1)CCO2	-5.7*	0.08*
COc1cccc(C(C(=O)NC2CCCCC2)N(CC2CCCO2)C(=O)CNC(=O)c2ccco2)c1 (stereo unspecified)	i	-0.01
CCN(CC)c1cc(Oc2ccccc2)ncn1	i	0.56
CCOC(=O)c1ccc(NC(=O)Cn2cnc3cc(C)c(C)cc32)cc1	i	0.41
O=c1[nH]c2ccc(NC(=S)Nc3ccccc3Cl)cc2[nH]1	i	-0.02
COc1ccc(CCNC(=O)c2c(C)nn(CC(C)C)c2Cl)cc1OC	i	-0.09
Clc1ccccc1CN(Cc1ccccc1)C(c1cccs1)c1nnnn1C1CCCC1 (stereo unspecified)	-5.8*	-1*
COc1ccc(NC(=O)CSc2nc(C(C)C)nc3c2c(=O)n(C)c(=O)n3C)c(OC)c1	i	-0.02
CC(=O)C1=C(O)C(=O)N(c2ccc(O)cc2)C1c1ccccc1Cl (stereo unspecified)	i	-0.06
CCOc1ccccc1N(C)C(=O)Cn1ncc2c([nH]c3ccc(C)cc32)c1=O	i	-1.6

Next section, overlapping the part above by 3 compounds.
SMILES	KCNQ2 inh	KCNQ2 inh baseline
COc1ccc(NC(=O)CSc2nc(C(C)C)nc3c2c(=O)n(C)c(=O)n3C)c(OC)c1	i	-0.02
CC(=O)C1=C(O)C(=O)N(c2ccc(O)cc2)C1c1ccccc1Cl (stereo unspecified)	i	-0.06
CCOc1ccccc1N(C)C(=O)Cn1ncc2c([nH]c3ccc(C)cc32)c1=O	i	-1.6
COc1ccc(C(=O)CSc2nnc(-c3ccco3)c(-c3ccco3)n2)cc1	i	0.41
O=C(NCc1ccco1)c1n[nH]c(=O)c2ccccc12	i	-2
O=C(NCCc1ccccc1)c1nc2c(nnn2Cc2ccccc2Cl)c(=O)[nH]1	i	-0.66
CN1CCC(=O)N([C@H](CO)Cc2ccccc2)CC1	i	0.03
Cc1ccc(C=Nc2ccccc2C(N)=O)o1	i	-1.1
O=C(Nc1ccccc1Cl)N1CCN(C/C=C/c2ccccc2)CC1	i	3.3
Cc1ccc2c(c1)C1(OCCCO1)C(=O)N2CC(=O)NN	i	-0.18
CC(=O)c1ccc(NC(=O)CN2CCOCC2)cc1	i	-0.64
C/C=C\C=C/C(=O)Nc1cccc(C2=NOC3(C2)C[C@@H](C(N)=O)N(C(=O)/C=C/C=C\C)C3)c1 (stereo partly specified)	i	1.5
COC(=O)c1ccccc1NC(=O)C1CCN(C(=O)c2ccc(OC)cc2)CC1	i	-0.78
O=S(=O)(c1ccccc1)N1CCN(c2ncnc3sc(-c4ccccc4)cc23)CC1	i	-1.6
COc1ccc(OC)c(/C=C(\NC(=O)c2ccccc2)C(=O)N/N=C/c2ccc(C)s2)c1	i	-0.35
Cc1ccc(S(=O)(=O)N(C)C)cc1NC(=O)c1cccnc1Oc1ccccc1	i	0.54
Cn1c(=O)[nH]c(NC2CCCCC2)c([N+](=O)[O-])c1=O	i	1
Cc1ccc(C(C#N)c2ccc(C(=O)c3ccc(F)cc3)cc2)cc1 (stereo unspecified)	-6.4*	-0.39*
COc1ccc(C(=O)Nc2c(Cl)cc(Cl)cc2C(=O)N2CCC(C)CC2)cc1	i	1.7
O=C(O)/C=C/C(=O)N1CCN(Cc2ccc3c(c2)OCO3)CC1	i	0.41
Cc1cccc(C(=O)Nc2sc(C)c(-c3ccccc3)c2C#N)c1	i	1.3
COC(=O)c1cc(S(=O)(=O)N(C)C2CCCCC2)c[nH]1	i	1
COC(=O)C1=C(C)NC2=C(C(=O)CCC2)C1c1cccc(C)n1 (stereo unspecified)	i	1.9
COC(=O)CN1C(=O)COc2ccc(S(=O)(=O)NCc3ccccc3)cc21	i	1.4
O=C(CCCCl)NC(=S)Nc1ccc(CN2CCOCC2)cc1	i	-0.89
CCNC(=O)c1cc(S(=O)(=O)N2CCSCC2)ccc1OC	i	0.44
COc1ccc(NC(=O)C2CC(=O)N/C(=N/N=C/c3ccccc3)S2)cc1 (stereo unspecified)	i	1.3
Cc1c(NC(=O)CN2C(=O)c3ccccc3S2(=O)=O)c(=O)n(-c2ccccc2)n1C	i	0.01
NC(=O)C1CCN(C2CC(=O)N(Cc3ccc(N4CCCC4=O)cc3)C2=O)CC1 (stereo unspecified)	i	0.76
COC(=O)c1ccc(NC(=O)CSc2nc3ccccc3c(=O)[nH]2)cc1	i	0.28
CN(CCN1CCOCC1)C(=O)c1cc(COc2ccc(F)c(F)c2)on1	i	-0.89
NC(=O)C1CCN(C(=O)c2ccc([N+](=O)[O-])cc2NC(=O)c2cccs2)CC1	i	-0.53
O=C(CN1C(=O)/C(=C/c2ccccc2F)SC1=S)NC1C=CS(=O)(=O)C1 (stereo unspecified)	i	2.8
Cc1nn(-c2ccccc2)c(Cl)c1C1C(C#N)=C(N)OC2=C1C(=O)CCC2 (stereo unspecified)	i	-0.81
COc1cc(NC(=O)CSc2nnc3c(C)cc4c(C)ccc(C)c4n23)c(C(=O)O)cc1OC	i	-0.22
O=C(/C(C=Nc1cccc(C(F)(F)F)c1)=C(/O)c1ccco1)C(F)(F)F	i	0.17
Cc1c(/C=N/NC(=O)c2cc(Br)ccc2O)c(=O)n(C)c(=O)n1C	i	-1.8
Cc1ccc(CNC(=O)COC(=O)C2CCN(S(=O)(=O)c3cccs3)CC2)cc1	i	-0.33
COc1ccccc1NC(=O)NCc1ccco1	i	-0.09
COc1cc(/C=C2\SC(N)=NC2=O)cc(OC)c1	i	1.9
FC(F)(F)c1cccc(Oc2nc(-c3ccccc3)nnc2C(F)(F)F)c1	i	-0.06
CS(=O)(=O)N(CC(=O)N1CCN(c2ccccc2F)CC1)C1CCCCC1	i	-0.28
O=C(Cc1ccccc1[N+](=O)[O-])NCc1ccc2c(c1)OCO2	i	0.06
C/C(CC1(O)/C(=N/O)CCc2nonc21)=N\O (stereo unspecified)	i	0.34
CC1(C)CC(=O)C=C(Nc2ccc3c(c2)CCC3)C1	i	0.88
Clc1cccc(Cl)c1Cn1nnc(N2CCCC2)n1	i	-1.5
Cc1ccccc1OCC(=O)N/N=C/c1cccc(Oc2ccc([N+](=O)[O-])cc2[N+](=O)[O-])c1	i	0.01
C/C(CC(=O)Nc1ccccc1[N+](=O)[O-])=N\NC(=O)COc1ccccc1C	i	-0.41

An excerpt from above in order of the KCNQ2 inh baseline value, descending.
SMILES,KCNQ2 inh,KCNQ2 inh baseline
COc1cc(NC(=O)CSc2nnc3c(C)cc4c(C)ccc(C)c4n23)c(C(=O)O)cc1OC,i,-0.22
CS(=O)(=O)N(CC(=O)N1CCN(c2ccccc2F)CC1)C1CCCCC1,i,-0.28
Cc1ccc(CNC(=O)COC(=O)C2CCN(S(=O)(=O)c3cccs3)CC2)cc1,i,-0.33

Compound profiles, from the list above:
FC(F)(F)c1cccc(Oc2nc(-c3ccccc3)nnc2C(F)(F)F)c1 as listed: KCNQ2 inh = i; KCNQ2 inh baseline = -0.06
Cc1nn(-c2ccccc2)c(Cl)c1C1C(C#N)=C(N)OC2=C1C(=O)CCC2 (stereo unspecified) as listed: KCNQ2 inh = i; KCNQ2 inh baseline = -0.81

More results.
SMILES	KCNQ2 inh	KCNQ2 inh baseline
CCCCC(CC)C(=O)Nc1cc([N+](=O)[O-])ccc1F (stereo unspecified)	i	-0.7
NC(=O)c1c(NC(=O)CSc2nc(N)cc(=O)[nH]2)sc2c1CCCC2	i	2.2
Cc1cc(F)ccc1S(=O)(=O)Nc1ccccc1C(=O)Nc1ccccc1-c1nc2ccccc2[nH]1	i	0.27
CC(C)(C)c1cc(C(=O)NCCCn2ccnc2)cc(C(C)(C)C)c1	i	2.7
CCOC(=O)CN1C(=O)N[C@@H](c2cccc(C(F)(F)F)c2)[C@H](C(C)=O)[C@H]1C	i	-1.6
CC(=O)c1cccc(N(C(=O)c2ccco2)C(C(=O)NC2CCCC2)c2ccccc2F)c1 (stereo unspecified)	i	-0.13
CCOc1ccc2[nH]c(=O)c(CN(CCN3CCOCC3)Cc3nnnn3C(C)(C)CC)cc2c1	i	0.96
COc1cccc(/C(C)=N/N=C(\C)c2cccc(OC)c2)c1	i	-0.94
Cc1oc2cc3oc(=O)c(CCC(=O)NCCCn4ccnc4)c(C)c3cc2c1C	i	3.2
Cc1cc(C)cc(N2C(=O)C3NN=C(C(=O)OCc4ccccc4)C3C2=O)c1 (stereo unspecified)	i	0.24
CNC1(c2nnnn2-c2c(C)cccc2C)CCOC(C)(C)C1 (stereo unspecified)	i	1.1
